# From PubChem BioAssay
# RecA splice inh – Mtb RecA intein splicing inhibitors, primary screen, biochemical, fluorescence, HTS. inhibition, %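 (about 9 µM by stock and volumes)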. 290,000 compounds, 0.75% hits. cell-free RecA intein splicing; in the data active means inhibition above about 30%; inconclusive means no clear call, values can overlap the other calls;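 further: 0% = vehicle wells and 100% = reference inhibitor control wells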
# Target sequence (P9WHJ3 whole entry, looked up, canonical isoform): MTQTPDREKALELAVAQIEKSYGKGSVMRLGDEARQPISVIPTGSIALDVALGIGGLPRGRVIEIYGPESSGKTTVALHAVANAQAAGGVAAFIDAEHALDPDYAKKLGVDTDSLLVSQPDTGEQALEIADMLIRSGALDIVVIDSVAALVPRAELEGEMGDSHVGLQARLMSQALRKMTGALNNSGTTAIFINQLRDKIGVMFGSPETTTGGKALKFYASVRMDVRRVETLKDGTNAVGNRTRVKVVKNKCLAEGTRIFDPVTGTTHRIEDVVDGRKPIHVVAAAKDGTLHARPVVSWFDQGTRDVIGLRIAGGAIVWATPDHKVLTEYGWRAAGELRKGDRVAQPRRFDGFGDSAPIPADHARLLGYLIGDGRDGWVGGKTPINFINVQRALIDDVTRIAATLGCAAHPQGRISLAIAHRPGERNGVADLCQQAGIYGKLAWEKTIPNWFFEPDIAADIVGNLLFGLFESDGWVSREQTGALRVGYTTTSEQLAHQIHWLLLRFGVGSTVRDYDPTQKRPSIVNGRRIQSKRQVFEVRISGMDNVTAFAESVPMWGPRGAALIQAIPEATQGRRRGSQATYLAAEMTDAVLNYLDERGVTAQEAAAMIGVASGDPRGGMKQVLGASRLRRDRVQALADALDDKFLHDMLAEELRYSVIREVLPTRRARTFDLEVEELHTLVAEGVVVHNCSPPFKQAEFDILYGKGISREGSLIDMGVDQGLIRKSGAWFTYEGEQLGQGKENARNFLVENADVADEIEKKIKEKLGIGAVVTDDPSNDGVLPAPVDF
# YopH inh – YopH tyrosine phosphatase inhibitors, primary screen, biochemical, fluorescence Ex485/Em525 | YopH tyrosine phosphatase [Yersinia enterocolitica] | inhibition, %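 (about 10 µM by stock and volumes)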 | 140,000 compounds, 0.16% hits | AID 898, 2007;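 active means inhibition of 50% or more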;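 further: controls were vehicle for no effect and minimum signal wells for full effect; inactives centre near -20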
# Mtb growth – M. tuberculosis H37Rv growth inhibitors, H37Rv strain (AID 1626); M. tuberculosis H37Rv growth inhibition; higher % means a stronger effect; inhibition, % at 10 µM; hits with a dose series show IC50 in µM; 220,000 compounds, 0.95% hits;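 active means confirmed in a dose series; inconclusive means inhibition above 80% but not taken into the dose series; inactive means below 80% or under 30% at every dose of the series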;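 further: bacteria incubated seven days before Alamar blue readout; 0% = bacteria only wells and 100% = bacteria with antibiotic wells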
# Mtb bLac sens – beta-lactam sensitization of Mtb H37Rv, H37Rv | M. tuberculosis H37Rv growth with meropenem, percent inhibition; hits of this screen are not shown here | 330,000 compounds, 0.27% hits | inhibition, % at 25 µM | AID 434955, 2010;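 active means about 74% or more and at least 40 points above the plate without the antibiotic, then above 30% in a dose series; inconclusive means first-round hits that could not be retested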;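 further: growth measured after seven days incubation then overnight dye step; 0% = bacteria only wells and 100% = bacteria with antibiotic; twin plates without the antibiotic show which effects depend on it; some results filed as inactive read as strong as hits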
# Arbovirus anti – antivirals against arbovirus infection, primary screen, cell-based, full library, 10K replicate subset. AID 1251, 2008. 200,000 compounds, 0.37% hits. arbovirus infection cell-based antiviral screen. inhibition, % at 10 µM;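 active means inhibition from about 30%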;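 further: bluetongue infection of BSR cells; cell survival read as ATP light after 72 h; 0% = infected wells without compound and 100% = uninfected wells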
# Arbovirus anti repeat – recorded beside Arbovirus anti, whose call it bears; inhibition, %; measured here: 10K subset replicate screen; many hits read low in the repeat;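 first of two repeat runs on a subset; 0% = infected and 100% = uninfected wells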
# * hit, by the source's call; ? = inconclusive; / = no result given. Only part of the results is shown (hit frequency here may not be typical).
SMILES,RecA splice inh,YopH inh,Mtb growth,Mtb bLac sens,Arbovirus anti,others
O=C1c2ccccc2C(Nc2ccc(Cl)cn2)N1Cc1ccccc1 (stereo not drawn),8.9,4,14%,-1,2,
COc1cc(C(=O)OCC(=O)c2c(N)n(C)c(=O)n(C)c2=O)ccc1OCCC(C)C,-6.1,/,-3%,1,-4,
O=S(=O)(N/N=C/c1ccc(OC2CSC2)cc1)c1ccccc1,0.4,-43,5%,2,-10,
CCOC(=O)N1N=C(c2ccccc2)CC1(O)C(C)(F)F (stereo not drawn),-0.7,/,-1%,-6,3,
CCCn1c(N)cc(=O)n(CCC)c1=O,3.7,/,-1%,2,3,
Cc1ccc(S(=O)(=O)N(C)C)cc1NC(=O)CCNC(=O)c1ccccc1Cl,-9.2,-22,-1%,7,6,
Cn1cccc1Cc1nnc(SCC(=O)Nc2ccccc2F)n1CCc1ccccc1,8.4,-31,2%,1,2,
CCS(=O)(=O)Nc1ccc(C2=NN(S(=O)(=O)CC)C(c3cccs3)C2)cc1 (stereo not drawn),-0.6,/,/,-5,/,
Nc1sc(-c2ccccc2)cc1C(=O)O,/,-11,/,/,0,
CCc1ccc(N(CC(=O)NC2CCCCC2)C(=O)CNC(=O)c2ccco2)cc1,-2.1,/,/,-3,/,
Cn1nnnc1SCC(=O)N(C1CCCCC1)C1CCS(=O)(=O)C1 (stereo not drawn),-1.6,/,-9%,-2,4,
CC(C)n1c(NCc2ccc(Cl)cc2)nc2ccccc21,0.8,/,/,-14,/,
CC(C)COc1ccc(C(=O)N2C(=O)c3ccc(N)cc3C2=O)cc1,/,/,-11%,-1,/,
COc1ccc(NC(=O)CCNS(=O)(=O)c2ccc(NC(C)=O)cc2)cc1Cl,0.7,/,/,2,/,
O=C(O)/C=C/c1cccc(NS(=O)(=O)c2ccccc2)c1,-6.8,-18,-7%,-4,1,

# Pulled by structure from the list above:
SMILES,RecA splice inh,YopH inh,Mtb growth,Mtb bLac sens,Arbovirus anti,others
CC(C)COc1ccc(C(=O)N2C(=O)c3ccc(N)cc3C2=O)cc1,/,/,-11%,-1,/,
O=S(=O)(N/N=C/c1ccc(OC2CSC2)cc1)c1ccccc1,0.4,-43,5%,2,-10,
COc1ccc(NC(=O)CCNS(=O)(=O)c2ccc(NC(C)=O)cc2)cc1Cl,0.7,/,/,2,/,
CCc1ccc(N(CC(=O)NC2CCCCC2)C(=O)CNC(=O)c2ccco2)cc1,-2.1,/,/,-3,/,
Nc1sc(-c2ccccc2)cc1C(=O)O,/,-11,/,/,0,

# Going on with the list:
SMILES,RecA splice inh,YopH inh,Mtb growth,Mtb bLac sens,Arbovirus anti,others
COc1ccc([N+](=O)[O-])cc1C(=O)NC1CCN(Cc2ccccc2)CC1,-0.4,/,/,-10,/,
Cc1cccc(Oc2ccc(Cl)cc2N)c1,2.6,/,6%,6,11,
CCOC(=O)C1C(=O)NC(c2ccccc2)=NC1c1cccc(Br)c1 (stereo not drawn),-4.1,/,5%,8,2,
Cc1cccc(CN2C(=O)c3ccccc3Sc3ccc(C(=O)O)cc32)c1,1.6,/,-7%,-5,/,
Fc1ccccc1C(c1nnnn1C1CCCC1)N1CCN(Cc2ccccc2)CC1 (stereo not drawn),0.7,-25,/,-2,-6,
CCCOC(=O)c1cccc(NC(=O)C(C)(C)C)c1,-6.1,-49,-1%,0,2,Arbovirus anti repeat=-2
CCCCCCn1cc(C(=O)OCC)c(=O)c2cc(F)c(F)cc21,0.2,/,10%,-12,/,
N#CC(CC(=O)c1ccc(F)cc1)c1ccc2c(c1)OCO2 (stereo not drawn),-1.8,/,/,-6,/,
N/C(=N\OC(=O)c1ccc(Cl)c(Cl)c1)c1cccc(CSc2ccccn2)c1,0.2,/,3%,-3,/,
CCCC(=O)N1CC(=O)Nc2ccc(Br)cc2C1c1ccc(F)cc1 (stereo not drawn),1.2,/,/,5,/,
Cc1ccc(S(=O)(=O)N2CCc3ccccc3C2CC(=O)O)cc1 (stereo not drawn),-0.1,/,0%,0,/,
COc1cc(/C=C/C(=O)N2CCN(CC(O)COc3ccccc3)CC2)cc(OC)c1OC (stereo not drawn),-0.9,-36,-9%,0,2,
Cc1cccc(N=Nc2ccc(N(C)C)cc2)c1,-0.6,/,/,0,/,
CN1CCN(c2ccc(Cl)cc2NC(=O)c2nn(-c3ccccc3)c(=O)c3ccccc23)CC1,1.3,-56,54%,/,-7,
COc1ccc(CC(=O)Nc2cc(=O)n(C)c(=O)n2C)cc1OC,11,/,2%,5,2,
CC1(C)CC(=O)C(C=NCC2CCN(C(=O)Cc3ccccc3)CC2)=C(O)C1,1.1,/,5%,5,4,
CC1CCCN(S(=O)(=O)c2ccc(C(=O)Nc3nnc(C4CC4)o3)cc2)C1 (stereo not drawn),-4.4,/,/,92,/,
COc1ccc(-c2nc(C#N)c(NCc3ccccc3Cl)o2)cc1,1.7,2,-1%,16,-2,
COCCn1c(NC(=S)NC(=O)C23CC4CC(CC(C4)C2)C3)cc(=O)[nH]c1=O,1.5,/,-1%,-1,/,
Cn1c(=O)c2cc(S(=O)(=O)NC(Cc3ccccc3)C(=O)NCC3CCCO3)ccc2n(C)c1=O (stereo not drawn),2.2,/,3%,0,-1,
COCCN1C(=O)c2ccccc2C(C(=O)N2CCN(c3ccccc3)CC2)C1c1ccc(F)cc1 (stereo not drawn),0.8,-38,-3%,?,-11,
CN(C)CCN(Cc1cccs1)S(=O)(=O)c1csc(C(N)=O)c1,0.3,/,/,-6,/,
O=C(CSc1nnc(-c2ccco2)o1)NC1CCCCC1,-1.2,-8,-8%,-7,-3,
CCN(CC)c1ccc(/C=N/N2CCN(Cc3ccccc3Cl)CC2)c(O)c1,2.5,/,?,70,/,
CCOc1ccc(N(CC(=O)Nc2ccc(F)c(F)c2)S(=O)(=O)c2c(C)noc2C)cc1,/,-44,-7%,8,-4,Arbovirus anti repeat=-5
COc1ccc(CCNC(=O)C2CCN(S(=O)(=O)N3CCC4(CC3)OCCO4)CC2)cc1OC,2.1,-23,-6%,3,3,
Cc1cc(O)c2c(c1)C(O)(C1OC(CO)C(O)C(O)C1O)c1cccc(O)c1C2=O (stereo not drawn),-4.6,-41,-18%,-5,-1,
Cc1ccccc1C(=O)NNC(=S)NC(=O)c1cccs1,11,/,/,91,/,
CCCC1O[C@@H]2C[C@H]3[C@@H]4CCC5=CC(=O)C=C[C@]5(C)[C@H]4[C@@H](O)C[C@]3(C)[C@]2(C(=O)CO)O1 (stereo partly drawn),1.1,-23,-4%,0,3,
Cc1nc2ccccc2c(N)c1C(=O)/C=C/c1ccccc1,-1.3,/,/,-4,/,
Cc1ccc2nc3c(nc2c1C)C(O)=C3O,/,/,1%,2,/,
S=C1NCN(Cc2ccco2)CN1CCc1ccccc1,-0.8,/,-6%,1,/,
Cc1ccccc1C(=O)NC(=S)NC1CCSC1=O (stereo not drawn),-0.2,-16,-10%,-4,2,
CCOC(=O)C1CCN(C(=O)C2CCCN(S(=O)(=O)c3ccc(OCC)c(Cl)c3)C2)CC1 (stereo not drawn),0.3,/,/,-10,/,
COc1ccc(CN2C(=O)c3ccccc3C2C(=O)NCc2cccnc2)c(OC)c1 (stereo not drawn),-0.9,-36,-3%,-3,5,
O=S(=O)(NCc1nc(-c2ccccc2)no1)c1ccc(F)cc1,1.3,/,/,-18,/,
NC(=O)NC(=O)C[n+]1cccc(/C=N/O)c1,5.7,/,-7%,-9,-36,
Cc1cccc(-c2noc(CNC(=O)Nc3ccc(F)cc3)n2)c1,0.9,/,32%,-2,-4,
Cc1cc(Nc2ccccc2)cc(=O)n1C,0.6,/,/,-11,/,
COc1ccc(CNCC(C)NCc2ccc(OC)c(OC)c2)cc1OC (stereo not drawn),0.2,/,/,-3,/,
CCN(CC)c1ccc(C(=O)n2cnc3ccccc32)cc1,12,-26,1%,/,-3,
Cc1ccc(NC(=O)CN(CCc2ccccc2)S(C)(=O)=O)cc1,1.8,/,/,0,/,
COc1ccc(C(OC(=O)c2ccco2)C(=O)NCc2ccco2)cc1 (stereo not drawn),2.4,-21,3%,3,13,
CCCn1c(N)c(N(CCOC)C(=O)c2cc(-c3ccco3)nc3ccccc23)c(=O)[nH]c1=O,-4.4,/,/,1,/,
Oc1cccc(/C=N/Nc2ccc(Cl)nn2)c1,-1.4,/,/,2,/,
CCN(C1CCCCC1)S(=O)(=O)c1c(C)n(C)c(=O)n(C)c1=O,-3.6,/,/,-3,/,
COc1cc(C)ccc1OCCCCN1CC(C)OC(C)C1 (stereo not drawn),0.1,-7,-1%,-4,-9,
N#Cc1cnc(NN)nc1,-3.8,/,-1%,-5,-1,
NC(=O)CC(NC(=O)c1ccccc1)c1ccc(N2CCC(Br)CC2)c([N+](=O)[O-])c1 (stereo not drawn),-4.8,/,-4%,-9,/,
CC1CCC(NC(=O)C(NS(=O)(=O)c2cccc3nsnc23)C(C)C)CC1 (stereo not drawn),-8.2,/,/,-6,/,
C[C@]12CC[C@@H](O)C[C@@H]1CC[C@@H]1[C@@H]2CC[C@]2(C)[C@@H](O)CC[C@@H]12,-0.2,-35,-2%,-1,-3,
Nc1nc(Nc2ccccc2)nc(C(F)(F)F)n1,-4.3,/,/,4,/,
COc1ccc(C2=NN(CN3C(=O)C(=O)c4ccccc43)C(c3ccc(C)cc3)C2)cc1 (stereo not drawn),7.7,-2,2%,26,-10,
O=C(CNC(=O)c1ccccc1)OCc1cccc([N+](=O)[O-])c1,-2.3,-28,-5%,4,4,
COc1ccc(CN(C)Cc2c(O)ccc3ccccc23)cc1,-6.2,/,/,2,/,
O=C(CCc1ccccc1)OCCN1CCOCC1,-4.5,-16,-11%,-15,-3,
C[C@H]1CCC[C@@]2(O[C@@H](CCO)C[C@H](O)[C@H]2O)O1,0.5,/,-8%,-7,/,
CCCCCCN=CC1=C(O)CC(C)(C)CC1=O,1.6,-24,-8%,-6,0,
CCc1nnc(NC(=O)CSc2nnc(-c3ccccc3NC(=O)c3ccccc3)o2)s1,-3.7,-40,60%,6,-9,
CCOc1ccc(-c2nc(C)c(C(C)=O)n2O)cc1,-0.9,-34,5%,-5,2,
# (cont.)
SMILES,RecA splice inh,YopH inh,Mtb growth,Mtb bLac sens,Arbovirus anti,others
O=C(Nc1ccc(Cl)cc1)N1CCN(C(=O)C2CCCO2)CC1 (stereo not drawn),0.4,/,/,0,/,
O=C(CCC(=O)NNc1nc2ccccc2c2nc(-c3ccccc3)nn12)NCCCN1CCOCC1,-3.9,/,-3%,5,1,
CNCCCC1Sc2ccccc2Oc2ccccc21 (stereo not drawn),1.8,-15,13%,2,-36,
COc1ccc([N+](=O)[O-])cc1N(CC(=O)NCc1ccco1)S(C)(=O)=O,-6.8,/,-3%,0,13,
C=CCNC(=S)N1CCC(C(=O)c2ccc3c(c2)OCCO3)CC1,-1.8,/,-3%,-1,-2,
O=C(N/N=C/c1ccc(Cl)cc1Cl)c1cccc(N2CCCC2=O)c1,-0.7,/,/,1,/,
N#Cc1nc(Cc2ccccc2)oc1N1CCN(c2ccccc2)CC1,1.1,-26,4%,3,-10,
CCOC(=O)c1ccc(COC(=O)c2nonc2N)cc1,0.3,3,/,-7,-4,
Cc1occc1-c1nc(-c2ccccn2)no1,-0.8,-29,5%,-4,-4,Arbovirus anti repeat=-6
COc1ccc(C(=O)CN2C(=O)NC3(CCCc4ccccc43)C2=O)cc1 (stereo not drawn),2.5,/,/,-7,/,
CC(C)NC(C(=O)Nc1cc(Cl)cc(Cl)c1)c1ccccc1 (stereo not drawn),-1.4,-1,4%,-2,-20,

# 3 entries from above, arranged by SMILES length, smallest number first:
SMILES,RecA splice inh,YopH inh,Mtb growth,Mtb bLac sens,Arbovirus anti,others
CNCCCC1Sc2ccccc2Oc2ccccc21 (stereo not drawn),1.8,-15,13%,2,-36,
COc1cc(C)ccc1OCCCCN1CC(C)OC(C)C1 (stereo not drawn),0.1,-7,-1%,-4,-9,
COc1cc(/C=C/C(=O)N2CCN(CC(O)COc3ccccc3)CC2)cc(OC)c1OC (stereo not drawn),-0.9,-36,-9%,0,2,
